Screens (PubChem)
Mtb hypoxia rep – reduces hypoxia-regulated biosensor signal in M. tuberculosis; M. tuberculosis hypoxia-regulated fluorescent reporter, fluorescence; fluorescence inhibition, % (no concentration beside the values); 300,000 tested, 0.1% active; AID 1159583;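 active = 35 to 45% if threefold the growth effect, above 45% if 1.5-fold the growth effect; inactive = the rest, general growth blockers included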;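 note: wells of about 50 µL received 100 nL stock; 0% = vehicle wells and 100% = reference inhibitor wells; whole bacteria with a GFP reporter of the hypoxia response; strong numbers were not always called active; many hits fall short of the cut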
BJeLR viability – BJeLR cell viability loss. inhibition, % (concentration not given with the values). 300,000 tested, 0.17% active. AID 1554. BJeLR (HRASV12) viability, CellTiter-Glo ATP luminescence, 48 h; reference of the scale not given here;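 active = replicate mean above 50%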;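 note: 50 nL library stock added to about 25 µL; numbers are from one replicate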
Bead autofluor – flagged as autofluorescent in microsphere protease counterscreen | 360,000 tested, 3.1% active | AID 624483 | fluorescence intensity (no concentration beside the values) | compound autofluorescence counterscreen, microsphere flow cytometry; active compounds read high;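 active = at least 3 SD above the mean of all compounds, about 16000 in these data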;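 note: 100 nL of 1 mM stock went into each well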
PrP UTR inh – suppresses PrP 5' UTR mRNA reporter expression; cell-based PrP 5' UTR mRNA reporter, plate reader; inhibition, % (no concentration beside the values); 340,000 tested, 0.35% active; AID 488862;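 active = every replicate at 50% or more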;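 note: 0 = median of the neutral control wells; tested in H4 reporter cells; numbers are from one replicate; inactives centre near -14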
Sa ugtP lethal – growth inhibition of S. aureus ugtP deletion strain; S. aureus RN4220 ugtP deletion, OD600 growth, 16 h; some inactives read as strong as hits; growth inhibition, % (concentration not given with the values); 330,000 tested, 0.54% active; AID 1259309;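 active = z-score under -3 and OD600 up to 0.15 on both plates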;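 note: plate controls were untreated wells for no effect and antibiotic for full effect; wells of about 80 µL received 100 nL stock; the first replicate is given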
RN4220 kill – kills Staphylococcus aureus RN4220 | S. aureus RN4220 growth, OD600, 16 h | inhibition, % (no concentration beside the values) | 330,000 tested, 0.33% active | AID 1259311;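 active = z-score of -3 or lower and OD600 up to 0.18 on both plates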;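 note: plate controls were untreated cells for no effect and reference antibiotic for full effect; stock transfer was 100 nL into about 80 µL; one replicate is shown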
Mtb hypoxia rep growth – also measured in Mtb hypoxia rep; calls as there; growth inhibition, %; measured here: M. tuberculosis growth (absorbance);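 0% = vehicle and 100% = reference antibiotic; read after six days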
Starred values were filed as active, the others as inactive; . = not tested or not shown.

SMILES | Mtb hypoxia rep | Mtb hypoxia rep growth | BJeLR viability | Bead autofluor | PrP UTR inh | Sa ugtP lethal | RN4220 kill
CC(=O)N1CCN(C(=O)CCCNC(=O)c2ccc(Cl)cc2)CC1 | 8 | 6 | -16 | 5220 | -18 | 4 | 2.3
COc1ccccc1CCNC(=O)c1cc(-c2ccncc2)nc2ccc(Br)cc12 | -9 | 2 | 4 | 3362 | -13 | 17 | -0.9
N#Cc1nc(-c2ccco2)oc1N1CCCC1 | 5 | 5 | 2 | 3225 | -14 | 9 | 3.7
Cc1ccc(SCC(=O)OC(C)C(=O)NC2CCCCC2C)c(C)c1 (stereo not given) | 2 | 5 | . | 6163 | -50 | 0 | 6.8
COc1ccc(CC(=O)OCC(=O)c2ccc(OC)c(OC)c2)cc1 | 14 | 8 | . | . | -4 | 5 | 4.3
CC(C)(C)c1ccc(C(=O)NCCC(=O)NC2=NCCS2)cc1 | -7 | -2 | . | 7916 | -16 | 1 | 3.1
Clc1ccc2nc3c(c(-c4ccccc4)c2c1)CNCC3 | 18 | 7 | 6 | 2177 | -16 | -1 | -0.6
NC1=NC(c2cn[nH]c2-c2cccc(F)c2)n2c(nc3ccccc32)N1 (stereo not given) | 12 | 15 | 0 | 3828 | -17 | 4 | -0.8
O=C(O)c1cnn(-c2nc(-c3ccc(F)cc3)cs2)c1C(F)(F)F | 11 | 8 | 6 | 4863 | -7 | 9 | 4.1
Cc1ccc(C)c(NC(=O)NNC(=O)c2cc3occc3[nH]2)c1 | 3 | -3 | 0 | 4715 | -2 | 2 | 0.7
CC(=O)N(/N=C1\Sc2ccccc2C1=O)c1ccccc1C | . | . | 3 | 3178 | -63 | . | .
CCOC(=O)c1[nH]c(C)c(C(=O)OC)c1C | 8 | 0 | -10 | 5220 | -22 | 0 | 1.7
CSc1ccccc1NC(=S)Nc1cccc(C(F)(F)F)c1 | 14 | 15 | -7 | 8181 | -12 | -15 | -2.7
C=CCn1c(SCC(=O)N2CCOCC2)nc2sc(C)c(C)c2c1=O | -8 | 5 | -2 | 3538 | -14 | 7 | 2.3
COc1ccc(NC(=O)CCN2CC(C)OC(C)C2)c(OC)c1 (stereo not given) | 4 | 3 | -5 | 9175 | 14 | 1 | 4.1
CCc1ccc(S(=O)(=O)c2n[nH]n3c2nc(=O)c2ccccc23)cc1 | 0 | 11 | 5 | 9615 | -20 | 0 | 23
O=C(NN1CCCCC1)c1cnn2c(C(F)F)cc(-c3ccccc3)nc12 | -13 | -1 | 9 | 4434 | -31 | 3 | 2.5
CSc1cccc(NC(=O)c2cccc3cccnc23)c1 | 1 | 2 | -4 | 6295 | -59 | 0 | 16
Cc1cc(=O)[nH]c(SCC(=O)Nc2ccc(Cl)cn2)n1 | 15 | 8 | -8 | 5460 | -45 | -7 | 7.6
O=C(COC(=O)/C=C/c1ccc(Cl)cc1)Nc1ccccc1-c1ccccc1 | 15 | 9 | -11 | 2664 | -13 | 14 | 3.9
Cc1ccc(NS(=O)(=O)c2ccc3c(c2)CC(=O)N3)cc1F | 5 | 7 | . | 3900 | -8 | 5 | -1.9
OC[C@@H](O)[C@@H](O)[C@H](O)[C@H](O)CO | . | . | -20 | 6037 | -10 | . | .
Cc1c(C(=O)OCC(=O)N2CC(=O)Nc3ccccc32)oc2ccc(Br)cc12 | . | . | 68* | 3848 | -28 | 8 | 4.8
CCCC(C)NC(=O)c1ccc2[nH]c3c(c2c1)CC(C)CC3 (stereo not given) | 2 | 10 | . | 2437 | -25 | -15 | -0.1
Cc1ccc(CN(CC(=O)NC2CCCCC2)C(=O)c2csnn2)cc1 | 7 | 3 | -14 | 5649 | -26 | 2 | 4.3
CCCCS(=O)(=O)N1CCC(C(=O)Oc2ccc(Cl)cc2)CC1 | 0 | 2 | 6 | 2864 | -12 | -5 | -1.0
O=C1CCCC(O)=C1N=Nc1ccc(C(=O)O)cc1 | 14 | 9 | 23 | 5984 | -29 | -7 | -0.7
COc1cc2c(cc1OC)C(c1ccc(Br)cc1)NCC2 (stereo not given) | 10 | 1 | 2 | . | . | 8 | 2.5
CCOc1ccc(N2C(=O)/C(=C\c3cccs3)C(=O)NC2=S)cc1 | 8 | 8 | 3 | . | . | 12 | 5.6
CCCCCc1nc2sc3c(c2c(=O)n1NC(=O)c1ccc([N+](=O)[O-])cc1)CC(C)(C)OC3 | -9 | 10 | -3 | 2615 | -36 | -15 | -2.4

The last two entries of the section before lead into the next.
SMILES | Mtb hypoxia rep | Mtb hypoxia rep growth | BJeLR viability | Bead autofluor | PrP UTR inh | Sa ugtP lethal | RN4220 kill
CCOc1ccc(N2C(=O)/C(=C\c3cccs3)C(=O)NC2=S)cc1 | 8 | 8 | 3 | . | . | 12 | 5.6
CCCCCc1nc2sc3c(c2c(=O)n1NC(=O)c1ccc([N+](=O)[O-])cc1)CC(C)(C)OC3 | -9 | 10 | -3 | 2615 | -36 | -15 | -2.4
CNC(=O)c1nnc(Cc2ccc(F)cc2)o1 | 10 | 7 | 7 | 5680 | -16 | 16 | 5.7
CCOC(=O)c1sc(NC(=O)CSc2ncn[nH]2)c(C#N)c1C | -3 | 2 | -5 | 6271 | -21 | 9 | 17
CCCn1cc(S(=O)(=O)CC(=O)Nc2ccc(OCC)cc2)c2ccccc21 | 5 | 10 | . | 8319 | -22 | -2 | 4.7
O=C(NCc1ccc(Cl)cc1)c1ccc(CNc2c(N3CCCC3)c(=O)c2=O)cc1 | 12 | -1 | -5 | 4154 | -14 | 5 | 3.2
CCOC(=O)N1CCN(C(=O)COC(=O)CNC(=O)c2ccc(C)cc2)CC1 | 7 | 6 | 1 | 4630 | -14 | 3 | 2.2
CCOC(=O)N1CCC(N2C(=O)c3ccccc3C2Nc2ccc3c(C)cc(=O)oc3c2)CC1 (stereo not given) | 0 | 8 | -2 | 5236 | -5 | 16 | 22
COc1ccc(C2=NN(c3nc(C(=O)O)cs3)C(O)(C(F)(F)F)C2)c(OC)c1 (stereo not given) | 9 | -2 | 14 | 2469 | -2 | 2 | 6.8
CCNc1nnc(SCC(=O)c2cc(C)n(C3CC3)c2C)s1 | 12 | 3 | . | 5184 | -10 | 2 | 1.7
CC(=O)NC(CC(=O)NC1CCCCC1)c1ccccc1 (stereo not given) | 3 | 7 | 0 | 2630 | -20 | 2 | 3.3
COc1cccc(NC(=O)c2cc([N+](=O)[O-])ccc2N2CCN(C)CC2)c1 | 14 | 5 | 6 | 2725 | -15 | 1 | 2.9
CC(=O)NCCc1cc2cc(C)c(C)cc2[nH]c1=O | . | . | -10 | 2216 | -23 | 5 | 2.2
CP(=O)(Nc1ccccc1)C(Cl)(Cl)Cl (stereo not given) | 9 | 7 | 1 | 4280 | -16 | 13 | 0.1
COc1ccccc1Oc1coc2c(CN(C)C)c(O)ccc2c1=O | 7 | 2 | -2 | 3106 | -6 | 1 | 6.6
COc1ccc(OC)c(/C=N/NC(=O)c2ccc3nc[nH]c3c2)c1 | . | . | -3 | 4268 | -10 | . | .
O=C(c1ccc2c(=O)n3c(nc2c1)CCC3)N1CCN(S(=O)(=O)c2cccc(F)c2)CC1 | -10 | 3 | -8 | . | -12 | 4 | 4.3
O=c1[nH]c(=O)n(CCC2=CCCCC2)c(O)c1/C=N/N1CCOCC1 | 2 | 4 | -1 | 4513 | -26 | 2 | 3.4
Cc1nnc(SCc2ccc(C(=O)Nc3cc(Cl)ccc3C)cc2)s1 | 2 | 0 | -7 | 1932 | -19 | 0 | -7.9
COC(=O)NN=C(C)/C=C/c1ccco1 | 2 | 0 | . | . | . | 11 | 1.3
CCOc1ccc(N=C2C(=O)N(CN3CCOCC3)c3ccccc32)cc1 | . | . | -11 | 4983 | -19 | -1 | -0.7
CC(C(=O)Nc1ccccc1F)N1C(=O)c2ccccc2C1=O (stereo not given) | 5 | 5 | 3 | 3864 | -10 | -4 | 5.9
Cc1cccc2cc(CN(Cc3nnnn3C3CCCC3)C3CCCCC3)c(=O)[nH]c12 | 6 | 15 | -12 | 5581 | -5 | 0 | 0.0
COc1cc(S(=O)(=O)NCC2CCCO2)c(OC)cc1Cl (stereo not given) | . | . | 1 | 2194 | 5 | 9 | 3.1
O=C(CSc1nnc2ccccn12)Nc1ccccc1C(=O)O | -2 | -7 | 9 | 2098 | -15 | 1 | 1.1
Cc1ccc(C)c(C(=O)CN2C3=NCCCN3c3ccccc32)c1 | 0 | -8 | 1 | 8933 | -3 | -2 | 0.3
O=C(NCCN1CCOCC1)c1cccs1 | 6 | 6 | -9 | 2901 | -13 | -10 | -9.4
COc1ccc(NC(=S)N2CCc3cc(OC)c(OC)cc3C2)cc1 | -8 | -5 | -3 | 5755 | -9 | 6 | 4.5
CCCCC(O)(CCCC)C(=O)NN(C(=O)OC)c1ccc(C)cc1 | -3 | -1 | -1 | 3144 | -23 | 4 | 3.1
COc1ccc(CCNC(=O)CN(c2ccccc2OC)S(C)(=O)=O)cc1OC | 2 | 1 | 4 | 11394 | -15 | 2 | 2.8
O/N=C(\Cc1cscn1)c1ccc(O)cc1O | . | . | -1 | 9001 | -23 | . | .
Cc1csc(NC(=O)C2CCCCC2C(=O)O)n1 (stereo not given) | . | . | 14 | 3583 | -10 | 1 | -1.0
CCOC(=O)c1ccc(CN2Cc3ccccc3C2=O)cc1 | 22 | 24 | -8 | 3204 | -10 | 6 | -2.0
COCCCNc1ncnc2c1nc1n2CCCC1 | -5 | -5 | 2 | 3891 | -8 | -9 | -1.9
Cc1ccc(S(=O)(=O)NCCc2nnc3ccc(NCCCOC(C)C)nn23)cc1 | 8 | 10 | 1 | 3334 | -12 | 10 | 0.5
C/C(=N/NC(=O)CNC(=O)/C=C/c1ccccc1)c1ccco1 | . | . | 12 | 4220 | -2 | . | .
O=C(CCc1ccccc1)NCC1OCCc2ccccc21 (stereo not given) | . | . | -4 | 4142 | -8 | 5 | 8.5
CCn1c(=O)c2cc(C(=O)NCc3cccs3)sc2c2ccccc21 | 1 | 8 | . | 4319 | -12 | 7 | -1.0
NC(=O)c1cn(-c2ccccc2)nc1-c1cccnc1 | -1 | 2 | -5 | 3768 | -22 | -2 | 0.2
COC(=O)[C@H](CCSC)NC(=O)Nc1ccc(S(N)(=O)=O)cc1 | 2 | 1 | -15 | 4687 | -11 | -3 | 0.8
COc1ccc(C2C3C(=O)N(C(C)(C)C)C(=O)C3[C@]3(C)C(=O)N(c4ccccc4)C(=O)N23)cc1 (stereo not given in full) | -1 | -11 | . | . | . | 0 | 5.3
COc1ccccc1N(CC(=O)N1CCCCCC1)S(=O)(=O)c1ccc(C)cc1 | -18 | -7 | -8 | 5456 | -2 | -2 | 4.9
CCCCn1c(-c2cccc(Br)c2)nc2cc3[nH]c(=O)c(C(C)C)nc3cc21 | 23 | 16 | 7 | 3130 | -5 | 3 | 3.6
O=[N+]([O-])c1ccccc1Nc1ccccc1 | 10 | 5 | 1 | 4190 | -21 | -4 | 5.6
Cc1ccc(S(=O)(=O)Nc2ccc3ccccc3n2)cc1 | 13 | 11 | -2 | 5856 | . | -3 | 2.0
O=c1cc(CN2CCOCC2)nc(C2CC2)[nH]1 | 7 | 17 | -11 | 3968 | -2 | -5 | 1.6
COc1ccc(NC(=S)NC2CCN(Cc3ccccc3)CC2)cc1OC | -3 | 7 | -10 | 3465 | -33 | -7 | 2.7
CCC(C)(C)n1nnnc1C(c1cc(OC)ccc1OC)N1CCC(C(N)=O)CC1 (stereo not given) | . | . | -9 | 3285 | 8 | 18 | 6.6
Cc1csc(NC(=O)c2nc(-c3ccccc3)n(-c3ccccc3)n2)n1 | 0 | 4 | -1 | 22922* | -17 | 0 | 4.4

Entries shown so far with a cyano group:
SMILES | Mtb hypoxia rep | Mtb hypoxia rep growth | BJeLR viability | Bead autofluor | PrP UTR inh | Sa ugtP lethal | RN4220 kill
N#Cc1nc(-c2ccco2)oc1N1CCCC1 | 5 | 5 | 2 | 3225 | -14 | 9 | 3.7
CCOC(=O)c1sc(NC(=O)CSc2ncn[nH]2)c(C#N)c1C | -3 | 2 | -5 | 6271 | -21 | 9 | 17

Reprinted from above (3 entries):
SMILES | Mtb hypoxia rep | Mtb hypoxia rep growth | BJeLR viability | Bead autofluor | PrP UTR inh | Sa ugtP lethal | RN4220 kill
COc1ccc(NC(=S)NC2CCN(Cc3ccccc3)CC2)cc1OC | -3 | 7 | -10 | 3465 | -33 | -7 | 2.7
CCC(C)(C)n1nnnc1C(c1cc(OC)ccc1OC)N1CCC(C(N)=O)CC1 (stereo not given) | . | . | -9 | 3285 | 8 | 18 | 6.6
Cc1csc(NC(=O)c2nc(-c3ccccc3)n(-c3ccccc3)n2)n1 | 0 | 4 | -1 | 22922* | -17 | 0 | 4.4
